Rango release inh: inhibitors of RanGTP-induced Rango-importin beta complex dissociation | O95149+P62826 | Biochemical FRET Rango-importin beta, RanGTP-induced dissociation | Potency, µM (top dose mostly 46.1 µM), for the others: top-dose activity change, negative = inhibition | 340,000 compounds, 0.071% hits | AID 540253; active means falling FRET ratio curve, often poorly fitted, with flat reads before Ran was added; inconclusive means other falling curves, or compound fluorescence or quenching; inactive means flat or rising ratio curve;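 further: potency means the concentration at half of the fitted maximal effect; % of control where 0% means no effect; nearly all actives have a fitted effect of over 45% in size; -100% = wells without RanGTP and RCC1; the record marks most hits as doubtful in a second field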
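Compounds preincubate 5 min with complex of recombinant Rango and importin beta in PBS with 1 mM DTT. Ran (0.6 uM) loaded with 2 mM GTP plus 0.2 uM RCC1 starts dissociation; FRET is recorded 45 min later.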
Rango complex inh: Rango-importin beta binding inhibition | Potency, µM (highest dose often 92.2 µM), inactives show at the top dose inhibition of complex formation | 340,000 compounds, 0.031% hits | Rango CFP/YFP FRET sensor + importin beta, 45 min | Q14974 | AID 540263; active = rising FRET ratio curve, often small or poorly fitted; inconclusive = mostly compound fluorescence or quenching in the first reads; inactive = flat curves in all reads;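 further: potency means the concentration at half of the fitted maximal effect; 0% = DMSO wells and 100% = buffer wells lacking importin beta; nearly all actives have a fitted effect of over 15% in size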
Target sequence (Q14974 whole entry, looked up): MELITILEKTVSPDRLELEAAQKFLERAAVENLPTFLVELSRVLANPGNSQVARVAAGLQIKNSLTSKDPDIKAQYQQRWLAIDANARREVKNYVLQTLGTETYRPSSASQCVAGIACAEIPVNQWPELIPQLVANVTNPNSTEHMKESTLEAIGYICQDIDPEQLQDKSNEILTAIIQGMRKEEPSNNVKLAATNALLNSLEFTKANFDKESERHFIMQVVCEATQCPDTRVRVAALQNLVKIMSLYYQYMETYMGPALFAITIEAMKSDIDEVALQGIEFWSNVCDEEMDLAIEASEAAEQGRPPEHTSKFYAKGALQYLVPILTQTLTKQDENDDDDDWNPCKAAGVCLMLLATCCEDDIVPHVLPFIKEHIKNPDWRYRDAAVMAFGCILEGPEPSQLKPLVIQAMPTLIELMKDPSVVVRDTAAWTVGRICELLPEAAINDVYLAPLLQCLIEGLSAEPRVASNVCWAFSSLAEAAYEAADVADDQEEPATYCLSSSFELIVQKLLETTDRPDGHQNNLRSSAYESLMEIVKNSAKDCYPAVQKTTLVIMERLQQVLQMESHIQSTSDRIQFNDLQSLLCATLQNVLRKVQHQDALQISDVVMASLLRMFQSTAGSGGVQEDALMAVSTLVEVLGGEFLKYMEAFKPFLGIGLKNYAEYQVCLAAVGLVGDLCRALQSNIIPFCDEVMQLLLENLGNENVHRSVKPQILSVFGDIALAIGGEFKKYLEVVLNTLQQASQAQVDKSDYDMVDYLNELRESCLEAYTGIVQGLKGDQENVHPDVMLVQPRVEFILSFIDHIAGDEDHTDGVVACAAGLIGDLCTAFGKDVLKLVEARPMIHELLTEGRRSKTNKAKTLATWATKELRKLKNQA
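FRET biosensor (snurportin 1 IBB flanked by EYFP and cerulean), 50 nM, with compound 5 min, then 0.125 microM importin beta in PBS, 1 mM DTT, 0.02% Tween-20, 0.1% BSA. CFP/YFP ratio read after 45 min at room temperature; pre-read flags interference.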
GLA inh pH 4.5: alpha-galactosidase A (human) inhibition, pH 4.5 | purified enzyme, 4-MU-alpha-Gal fluorescence, pH 4.5 | activity change, negative = inhibition, % at 105 µM | 230,000 tested, under 10 active; inconclusive = small, poorly fitted or top-dose-only inhibition, or a rising curve; inactive = flat fitted curve, though single readings scatter; no compound was filed as active;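 further: 0% = full activity with enzyme and -100% = basal without enzyme; dose as in the result columns while the protocol names 77 µM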
miR-21 reporter: miR-21 reporter, rising signal; HeLa miR-21 FLuc reporter, luciferase, 48 h; Potency, µM (titrated, usually from 38.3 µM), inactives show at the highest dose reporter change, positive = more light; 340,000 tested, under 10 active; active = well fitted rising curve with a large enough effect; inconclusive = small, poorly fitted or top-dose-only effect; inactive = no such curve, though single readings can be large or run the other way;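 further: % of control where 0% means no effect; miR-21 action dims this reporter so a rising signal means less miR-21 action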
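HeLa cells stably expressing CMV-driven firefly luciferase with a downstream miR-21 binding sequence, endogenously expressing miR-21, were treated with titrations (up to about 40uM final) for 48 hours at 37 degree Celsius. Luciferase luminescence was read after lysis.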
The depositor's hits bear a star; ? = inconclusive; · = no result given; & = joins results of further samples. This is a subset, so the mix of outcomes need not match the whole.

SMILES	Rango release inh	Rango complex inh	GLA inh pH 4.5	miR-21 reporter
CCN1CCN(c2ccc(S(=O)(=O)N3CCOCC3)cc2NC(=O)c2ccc(OCC(C)C)cc2)CC1	1%	-1.4%	·	·
CCOC(=O)c1sc(-c2ccccc2)cc1NC(=O)Nc1ccccc1	6%	-2.9%	3	-7%
O=C(C1CCCN(S(=O)(=O)c2cccc3nsnc23)C1)N1CCCCCC1 (stereo not given)	-10%	-2.1%	-4	-3%
O=C(COC(=O)c1ccc(F)cc1Cl)NC1CCS(=O)(=O)C1 (stereo not given)	15%	-1.0%	·	·
O=C(CN(Cc1ccccc1)S(=O)(=O)c1cccc(C(F)(F)F)c1)NC1CCCCC1	3%	3.0%	10	-13%
COCC1CCN(C(=O)C2CCC(=O)N(Cc3cccc(F)c3)C2)CC1 (stereo not given)	-13%	-0.4%	·	0%
Cc1ccc(-c2nc3ccccc3c(=O)n2-c2c(C)n(C)n(-c3ccccc3)c2=O)cc1	1%	-1.2%	0	4%
COc1ccccc1OCc1cc(C(=O)NCCN2CCCC(O)C2)no1 (stereo not given)	-25%	?	·	-9%
COc1ccccc1OCCC(=O)Nc1cccc(S(=O)(=O)N2CCCCC2)c1	16%	-1.9%	-13	2%
CC(=O)c1ccc(S(=O)(=O)NCc2nnnn2-c2ccccc2)cc1	-30%	2.7%	·	1%
CCOC(=O)C(C(=O)OCC)N(C#N)c1nc(N(C)C)nc(N(C)C)n1	1%	-5.4%	9	3%
Oc1ccc(Br)cc1C=Nc1ccc2c3c(cccc13)CC2	-8%	?	5	-4%
CCn1c(CNc2ccc(Cl)cc2)nnc1SCc1ccccc1	3%	-1.3%	4	6%
NS(=O)(=O)c1cc(C(=O)N2CCNC(=O)C2)ccc1Cl	2%	-2.2%	·	3%
COCCNC(=O)Cc1ccc(F)cc1	7%	-10%	-6	-2%
CCn1cnc2c(cnn2-c2ccccc2)c1=O	1%	-1.2%	-2	-31%
COc1ccc(NC(=O)c2cccc(S(=O)(=O)N3CCN(c4ccccc4)CC3)c2)c(OC)c1	-5%	-2.4%	·	·
CN(C(=O)COC(=O)c1ccccc1OCc1ccc(Cl)cc1)c1c(N)n(Cc2ccccc2)c(=O)[nH]c1=O	-16%	?	·	·
COc1ccc(CNC(=O)C/C(C)=N/NC(=O)c2ccccc2OC)cc1	30%	-0.2%	·	-23%
O=C(c1cn(Cc2ccccc2)nc1-c1cccnc1)N1CCN(Cc2ccccc2)CC1	-6%	-0.8%	·	·
COc1cccc(-n2cnc(=O)c3cccnc32)c1	-12%	-2.9%	-2	-29%
CCOC(=O)N1CCN(c2ccc(C(C)=O)cc2F)CC1C (stereo not given)	12%	-1.1%	4	0%
FC(F)(F)c1nnc(-c2ccccc2)nc1Sc1ccc(Cl)cc1	15%	0.0%	-6	0%
O=C(CSCC(=O)NCc1ccco1)NCc1ccco1	-5%	1.5%	-1	0%
CC(=O)c1cccc(NC(=O)Cn2cnc(S(=O)(=O)N3CCc4ccccc43)c2)c1	-4%	3.5%	·	10%
Cn1cnc([N+](=O)[O-])c1Sc1nc(N)nc2c1ncn2C1CC(O)C(CO)O1 (stereo not given)	-4%	-0.4%	·	·
C1=C(c2ccc(-c3ccccc3)cc2)Nc2ncnn2C1c1ccco1 (stereo not given)	?	?	9	-36%
COc1ccc(CCNC(=O)Cn2nnc3ccccc3c2=O)cc1	-9%	0.5%	-20	0%
CCOC(=O)N1CCC(NC(=O)CCc2c(C)nc3nc(C)nn3c2C)CC1	6%	0.4%	-9	-2%
O=C(COC(=O)c1ccc(F)cc1)NCC1CCCCC1	11%	-3.7%	·	·
O=C(NCCN1C(=O)S/C(=C\c2cccnc2)C1=O)C1CC(=O)N(Cc2ccco2)C1 (stereo not given)	0%	0.0%	7	3%
COCCN(C(=O)CNC(=O)c1cccs1)C(C(=O)NC1CCCC1)c1cccs1 (stereo not given)	-2%	4.0%	3	-12%
COc1ccc(-c2nc(CS(=O)CC(=O)NC3CCCCC3)c(C)o2)cc1 (stereo not given)	?	-2.3%	·	-2%
Cc1cccc(C(=O)NNC(=O)CCn2nnc3ccccc32)c1	1%	-1.4%	10	2%
Cc1ccc(OCc2cc(C(=O)NC(C)Cc3cccc(C)n3)no2)cn1 (stereo not given)	2%	-1.0%	·	14%
CCOCC(=O)Nc1ccc(Br)c(C)c1	1%	1.2%	7	-30%
Cc1noc(C)c1COC(=O)c1ccccc1NC(=O)Cc1ccccc1	-6%	0.7%	-20	-8%
Clc1ccccc1OCCN1CCC(Cc2ccccc2)CC1	3%	-0.6%	-6	0%
COc1ccc(N/N=C(C)/C(=N/O)C(=O)Nc2ccccc2)cc1	12%	-0.8%	-12	-23%
NCCCNc1ccc([N+](=O)[O-])cc1C(F)(F)F	3%	4.2%	-5	5%

Compound profiles, from the list above:
Cc1cccc(C(=O)NNC(=O)CCn2nnc3ccccc32)c1 reads Rango release inh = 1%; Rango complex inh = -1.4%; GLA inh pH 4.5 = 10; miR-21 reporter = 2%
COc1ccc(-c2nc(CS(=O)CC(=O)NC3CCCCC3)c(C)o2)cc1 (stereo not given) reads Rango release inh = ?; Rango complex inh = -2.3%; GLA inh pH 4.5 = ·; miR-21 reporter = -2%

(further entries)
SMILES	Rango release inh	Rango complex inh	GLA inh pH 4.5	miR-21 reporter
COCCSc1ccccc1C(=O)Nc1ccccc1C#N	7%	4.2%	-15	-4%
Clc1ccccc1-c1nnn(Cc2ccc(-c3nn[nH]n3)cc2)n1	-10%	-0.6%	-4	-9%
COc1cccc2c1C(=O)c1ccc3ccccc3c1C2=O	-10%	0.9%	-10	-33%
CCOC(=O)c1cc(=O)c2ccc(OCC(=O)Nc3ccccc3)cc2o1	12%	-0.5%	5	-1%
CC(C)=CCc1c2c(c(O)c3c(=O)c4c(oc13)-c1cc(O)c(O)cc1OC4C=C(C)C)C=CC(C)(C)O2 (stereo not given)	12%	-4.0%	·	·
COc1ccc(Br)cc1/C=c1\sc2nc(-c3ccco3)nn2c1=O	-3%	-1.1%	6	-3%
Nc1nc(SCc2ccc(Cl)cc2Cl)ns1	-3%	2.6%	-3	-50%
COC(=O)c1[nH]c2cc(C)ccc2c1NC(=O)CN1CCOCC1	-5%	-0.3%	5	-11%
Cc1cc(C)n2c(SCc3cccs3)nnc2n1	3%	0.2%	0	-32%
Cc1cccc(NC2SC(=O)NC2=O)c1 (stereo not given)	18%	-4.0%	13	-1%
Cc1ccc(Cn2c(C(CO)Nc3nc(-c4ccc(Cl)c([N+](=O)[O-])c4)cs3)nc3ccccc32)cc1 (stereo not given)	2%	0.9%	·	·
CN(CCc1cn[nH]c1)C(=O)CC1C(=O)NCCN1Cc1ccccc1C(F)(F)F (stereo not given)	-9%	0.5%	7	-4%
CN(C)S(=O)(=O)c1ccc(C(=O)Oc2coc(CSc3ncccn3)cc2=O)cc1	23%	-0.8%	-2	-6%
COc1ccc(CN2CC(=O)N(c3cccc(Cl)c3)C2=S)cc1OC	?	1.5%	·	-13%
CCCC(=O)N1CCN(c2nc3ccc(Br)cc3s2)CC1	1%	0.2%	·	-15%
CC1(C)CC(=O)C(CC(=O)Nc2ccc(S(N)(=O)=O)cc2)=C(O)C1	-12%	-2.5%	-7	-6%
CC(C(=O)Nc1ccc(C#N)cc1)N(C)CC(=O)Nc1ccccc1Br (stereo not given)	15%	6.6%	0	1%
COC1OC(CO)C(N(C)C(C)=O)C1O (stereo not given)	-7%	0.6%	·	·
CC(=O)Nc1cc(C(=O)NCc2ccco2)ccc1Sc1ccc(Cl)cc1	1%	-1.3%	-9	-1%
O=C(O)CCN1C(=O)/C(=C2\C(=O)N(Cc3ccc(F)cc3)c3ccccc32)SC1=S	6%	0.8%	·	0%
O=C(CSc1nnc(COc2ccccc2)o1)N1CCOCC1	-4%	-0.7%	-3	-4%
COc1ccc(/C=C/C(=O)OCC(=O)Nc2cccc(Oc3ccccc3)c2)c(OC)c1	1%	0.0%	2	-12%
Nc1cc(S(=O)(=O)Nc2cc(Cl)ccc2Cl)ccc1N1CCCC1	-9%	6.4%	-3	-1%
CCC(=O)N1CCc2cc(-c3csc(NC(=O)c4ccco4)n3)ccc21	0%	-0.6%	·	-19%
CCCc1[nH]nc2c1C(c1ccc(OC)c(Cn3nc(C)c(Br)c3C)c1)C(C#N)=C(N)O2 (stereo not given)	13%	-1.7%	4	4%
COc1ccc(CCC(=O)NNC(=O)Nc2ccc(C(C)C)cc2)cc1	0%	0.5%	·	-1%
Cc1ccc(-n2c(=O)[nH]c3c(oc4ccccc43)c2=O)cc1	-2%	1.3%	9	-9%
Cc1cc2oc(=O)cc(-c3ccccc3)c2c(C)c1-c1ccc(F)c(Cl)c1	-10%	0.1%	-8	·
O=C1/C(=C\c2ccc3ccccc3c2)CCCc2ccccc21	-9%	2.2%	5	-5%
CCN(CC)S(=O)(=O)c1ccc(C)c(NC(=O)COC(=O)C=C(C)C)c1	-16%	-4.0%	1	1%
O=C(NCc1ccccc1)C1=C[C@H](c2coc3ccccc3c2=O)C[C@H](OCCCCO)O1	-25%	-1.8%	-5	-2%
CCOc1ccc2nc(NC(=O)C3CCN(S(=O)(=O)c4cnc[nH]4)CC3)sc2c1	0%	-2.7%	8	3%
O=C(Nc1ccccn1)c1cc2cc([N+](=O)[O-])ccc2s1	-15%	2.3%	2	-66%
CCC1CCCCN1Cc1nc2c(c(=O)n(C)c(=O)n2C)n1Cc1cccc2ccccc12 (stereo not given)	-19%	1.0%	2	0%
COc1cc(O)c(C(CC(=O)N2CCCCC2)c2cc(OC)c(OC)c(OC)c2)c(OC)c1 (stereo not given)	9%	-0.4%	-5	11%
NCCNc1ccc(C(=O)N2c3ccccc3Sc3ccccc32)cc1[N+](=O)[O-]	-5%	-3.3%	·	25%
COc1ccc(NC(=O)CC(NCCc2ccccc2)C(=O)O)c(OC)c1 (stereo not given)	12%	-3.2%	0	-3%
O=C(NC1CCCC1)c1cc(-c2ccc(F)cc2)on1	-7%	-1.9%	·	-83%
COC(=O)CCS(=O)(=O)c1ccc(NC(C)=O)cc1	?	2.3%	-2	4%
Cc1ccccc1C(=O)c1cccn1CC(=O)NCC1CCCO1 (stereo not given)	5%	3.6%	3	-4%
OCC[C@H]1C[C@@H](O)[C@H](O)[C@]2(CCc3ccccc3O2)O1	14%	-3.0%	·	·
COc1cccc(C=Nc2cc(C(C)C)c(O)cc2C)c1O	-11%	2.3%	·	·
COc1ccc([N+](=O)[O-])cc1NC1CCCCC1	-5%	6.7%	-4	-10%
COCCC(=O)N1CCC(Oc2ccc(C(=O)NC3CCOC(C)(C)C3)cc2)CC1 (stereo not given)	15%	1.4%	·	-2%
CC1=C(C(=O)OCc2ccccc2)C(c2ccc(C(C)(C)C)cc2)NC(=O)N1CCCCCC(=O)O (stereo not given)	-5%	?	1&-8	-10%
O=C(Nc1ccc(N2CCCC2)cc1)c1cccc(Cl)c1	-5%	0.9%	·	-55%
CCN(CC)S(=O)(=O)c1ccc(N2CCOCC2)c(NC(=O)c2sccc2C)c1	0%	-0.2%	·	·
Cc1ccc(C(=O)Nc2ccc(Br)cc2)cc1S(=O)(=O)Nc1ccccn1	-11%	-0.1%	7	-6%
CCOc1ccc(C(NC(=O)CC)c2c(O)ccc3ccccc23)cc1 (stereo not given)	-8%	0.8%	·	7%
NS(=O)(=O)c1ccc(CCNC(=O)C2Cc3ccccc3CN2C(=O)c2ccco2)cc1 (stereo not given)	?	2.7%	4	-2%

Random excerpt: six entries already listed, in no set order.
SMILES	Rango release inh	Rango complex inh	GLA inh pH 4.5	miR-21 reporter
COc1ccc([N+](=O)[O-])cc1NC1CCCCC1	-5%	6.7%	-4	-10%
CCOc1ccc(C(NC(=O)CC)c2c(O)ccc3ccccc23)cc1 (stereo not given)	-8%	0.8%	·	7%
Cc1ccc(C(=O)Nc2ccc(Br)cc2)cc1S(=O)(=O)Nc1ccccn1	-11%	-0.1%	7	-6%
COCCC(=O)N1CCC(Oc2ccc(C(=O)NC3CCOC(C)(C)C3)cc2)CC1 (stereo not given)	15%	1.4%	·	-2%
CC1=C(C(=O)OCc2ccccc2)C(c2ccc(C(C)(C)C)cc2)NC(=O)N1CCCCCC(=O)O (stereo not given)	-5%	?	1&-8	-10%
O=C(Nc1ccc(N2CCCC2)cc1)c1cccc(Cl)c1	-5%	0.9%	·	-55%

Screening data deposited in PubChem BioAssay by National Center for Advancing Translational Sciences (NCATS).
